Vif A3G = inhibitors of Vif binding to APOBEC3G peptide, primary screen, biochemical, TR-FRET, GST-Vif 1-94, biotin-A3G peptide, dose response retest (AID 1117319) | TR-FRET GST-Vif / biotin-A3G peptide binding; higher % means a stronger effect; test concentration not given here; strong numbers were not always called active | one-dose inhibition, %; IC50 in µM for titrated hits | 260,000 compounds, 0.57% hits;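 active = above the screen mean plus three standard deviations and confirmed in dose response; inconclusive = results disagree or hit not tested in dose response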;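 also: Vif residues 1-94 fused to GST binding biotinylated APOBEC3G peptide 110-148; 0% = full assay without inhibitor and 100% = GST in place of GST-Vif; retest series ran down from 100 µM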
RanGTP-Impb inh = inhibitors of RanGTP-importin-beta interaction, primary screen, biochemical, FRET, CFP-Ran, YFP-importin-beta, homogeneous; inhibition, % (no concentration beside the values); cell-free CFP-Ran/YFP-importin-beta FRET ratio; AID 2216; 300,000 compounds, 1.1% hits;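 active = most replicates above 15%; inconclusive = exactly half above 15%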;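 also: 0% = DMSO wells and 100% = Ran loaded with GDP instead of GTP; wells of about 40 µL received 100 nL stock; the first replicate is given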
AF4-AF9 inh = MLL-AF4/AF9 protein interaction inhibition. inhibition, % at 10 µM. AlphaScreen, biotin-AF4 peptide binding to FLAG-AF9. 350,000 compounds, 0.47% hits;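 active = every replicate reaching a set inhibition limit, whatever the replicate mean, cut at about 25% in these data; inconclusive = mean inhibition reaches that limit but some replicates miss it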;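 also: 0% = plate neutral control median and 100% = total signal loss; the record names both 10 and 1 µM as test concentration; the first replicate is given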
Target sequence (P42568 whole entry, looked up): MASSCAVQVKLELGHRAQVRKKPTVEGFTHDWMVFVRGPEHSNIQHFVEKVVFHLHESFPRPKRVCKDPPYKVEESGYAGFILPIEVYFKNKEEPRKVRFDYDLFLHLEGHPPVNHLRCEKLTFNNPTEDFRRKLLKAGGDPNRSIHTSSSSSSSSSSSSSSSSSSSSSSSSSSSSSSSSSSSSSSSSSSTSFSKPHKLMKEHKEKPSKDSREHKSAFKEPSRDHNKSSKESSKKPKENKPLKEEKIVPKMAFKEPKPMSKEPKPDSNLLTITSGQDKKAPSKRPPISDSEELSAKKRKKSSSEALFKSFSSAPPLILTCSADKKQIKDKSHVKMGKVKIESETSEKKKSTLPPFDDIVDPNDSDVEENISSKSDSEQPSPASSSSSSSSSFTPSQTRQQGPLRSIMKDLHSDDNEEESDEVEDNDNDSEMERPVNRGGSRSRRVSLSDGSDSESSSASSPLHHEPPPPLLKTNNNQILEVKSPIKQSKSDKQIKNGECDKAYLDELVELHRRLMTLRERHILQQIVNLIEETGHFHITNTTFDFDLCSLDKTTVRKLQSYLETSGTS
T cruzi inh = blocks replication of Trypanosoma cruzi. T. cruzi beta-gal in NIH3T3, luminescence, 90 h. inhibition, % (no concentration beside the values). 300,000 compounds, 1.4% hits;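 active = mean inhibition across valid replicates above about 55%, limit read from the data; inconclusive = mean below that limit but half or more replicates reach it; inactive = mean below it, under half of replicates reach it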;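 also: signal also drops with host cell toxicity which is not excluded here; 0% = plate median of DMSO wells and 100% = zero luminescence signal; higher percent means less beta-gal luminescence so fewer parasites; stock transfer was 50 nL into about 50 µL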
Beta apoptosis = blocks beta cell apoptosis | INS-1E cytokine-induced death, ATP luminescence, 48 h; percent of positive-control rescue, neutral wells zero | protection from apoptosis, % (no concentration beside the values) | 300,000 compounds, 0.8% hits;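 active = all replicates at 75% or more, or half of them and the mean; inconclusive = half reach 75% but not the mean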;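 also: 0% = cytokine-treated negative control wells and 100% = positive control rescue; higher means more ATP so stronger rescue from cytokine killing; wells of about 40 µL received 100 nL stock; the first replicate is given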
Bfl-1 A1 inh = inhibitors of the anti-apoptotic protein A1, read as caspase activation; MEF A1-2A-BIM cells, Caspase-Glo 3/7 luminescence, 3 h; percent of clofoctol response, vehicle zero; caspase activation, % (concentration not given with the values); 330,000 compounds, 0.066% hits; AID 2462;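 active = over half of replicate activation scores above 10%, or exactly half above 10 with the replicate mean above 10; inconclusive = replicate mean below 10 yet half the replicates above 10; inactive = over half of replicates below 10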;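 also: wells of about 30 µL received 50 nL stock; many hits fall short of the cut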
Calb FLC = C. albicans growth modulation with fluconazole | C. albicans CaCi-2 (fluconazole-resistant clinical isolate) + fluconazole, Alamar Blue growth, 48 h | growth inhibition, % (no concentration beside the values) | 300,000 compounds, 0.57% hits | AID 1979;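 active = most replicates above 75%; inconclusive = exactly half above 75%; inactive = most below 75%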;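 also: all wells also contain fluconazole at 8 µg/ml as a sub-toxic cotreatment; 0% = median of DMSO wells and 100% = median of geldanamycin control wells; wells of about 8 µL received 7.5 nL stock; the first replicate is given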
Ecoli rRNA inh = selective bacterial rRNA inhibition in E. coli. E. coli WT GFP vs humanized-ribosome RFP mutants, fluorescence, 24 h; hits give low values; DMSO median 0, no signal -100. GFP signal change (wild-type ribosome), % (test concentration not listed). 350,000 compounds, 1.6% hits;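 active = significant combined selectivity score with lowered wild-type GFP, culture density cut under 30%, mutant RFP and density less affected; inactive = any of these conditions unmet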; also: one replicate is shown; some compounds called inactive have numbers as strong as hits
Ecoli rRNA inh OD600 = recorded beside Ecoli rRNA inh, whose call it bears; OD600 change, %; measured here: OD600 growth;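 optical density of the mix in the first replicate; 0 = DMSO median and -100 = no signal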
Ecoli rRNA inh RFP = second read-out of Ecoli rRNA inh, no call of its own (marks repeat the call); RFP signal change, %; measured here: RFP humanized mutant strains;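 first replicate; 0 = DMSO median and -100 = no signal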
Starred values were filed as active, the others as inactive.

Results for O=C1C=C(c2ccc(-c3ccccc3)c(F)c2)C[C@@H](c2ccc(Cl)cc2)C1 ?
AF4-AF9 inh: 0.7; Beta apoptosis: 2; Bfl-1 A1 inh: 0.2; Ecoli rRNA inh: 1; Ecoli rRNA inh OD600: 9; Ecoli rRNA inh RFP: -9.5

How did O=C(Nc1cccc(F)c1)C1CCN(C(=O)c2ccccc2Cl)CC1 do in these assays?
Vif A3G: 1%; RanGTP-Impb inh: -1.5; T cruzi inh: 6; Beta apoptosis: -9; Bfl-1 A1 inh: 0.3; Calb FLC: -2

What do the screens show for `Cc1nn(-c2ccccn2)c2c1C(c1c(F)cccc1Cl)C1=C(N2)c2ccccc2C1=O` (stereo not given)?
Vif A3G: inconclusive; RanGTP-Impb inh: 5.8; T cruzi inh: 27; Beta apoptosis: 15; Bfl-1 A1 inh: -0.6; Calb FLC: 10

Results for CCCCc1nc(SCC(=O)Nc2nnc(CCCC)s2)n[nH]1 ?
Vif A3G: 5%; RanGTP-Impb inh: -0.8; AF4-AF9 inh: -2.7; T cruzi inh: -8; Beta apoptosis: -3; Bfl-1 A1 inh: -0.4; Calb FLC: -11; Ecoli rRNA inh: 2; Ecoli rRNA inh OD600: 1; Ecoli rRNA inh RFP: -1.0

Results for Cc1cccc(NC(=O)CCc2ccc(C)o2)c1 ?
Vif A3G: inconclusive; RanGTP-Impb inh: 0.8; T cruzi inh: -11; Beta apoptosis: -6; Bfl-1 A1 inh: -0.9; Calb FLC: -35

Results for CC(=O)Nc1ccc(NC(=O)C2(C)CC2(Cl)Cl)cc1 (stereo not given) ?
Vif A3G: -9%; RanGTP-Impb inh: 3.3; AF4-AF9 inh: 0.0; T cruzi inh: -17; Beta apoptosis: -1; Bfl-1 A1 inh: 1.7; Calb FLC: -2

What do the screens show for `O=C(O)c1cc(NC(=O)c2ccccc2F)cc(NC(=O)c2ccccc2F)c1`?
RanGTP-Impb inh: 3.6; AF4-AF9 inh: 2.3; T cruzi inh: -10; Beta apoptosis: -4; Bfl-1 A1 inh: 0.7; Calb FLC: 4; Ecoli rRNA inh: 0; Ecoli rRNA inh OD600: 1; Ecoli rRNA inh RFP: 0.5

Results for O=C(COC(=O)c1ccc(N2CCCC2=O)cc1)c1ccc(OC(F)F)cc1 ?
Vif A3G: -9%; RanGTP-Impb inh: -0.2; AF4-AF9 inh: -1.8; T cruzi inh: -3; Beta apoptosis: -6; Bfl-1 A1 inh: -0.3; Calb FLC: 9; Ecoli rRNA inh: 1; Ecoli rRNA inh OD600: 9; Ecoli rRNA inh RFP: 0.1

How did O=C(C1CCCCN1S(=O)(=O)c1ccccc1[N+](=O)[O-])N1CCCC1 (stereo not given) do in these assays?
Vif A3G: 5%; RanGTP-Impb inh: 1.2; AF4-AF9 inh: -0.8; T cruzi inh: 3; Beta apoptosis: -1; Bfl-1 A1 inh: 0.4; Calb FLC: -6; Ecoli rRNA inh: 17; Ecoli rRNA inh OD600: 5; Ecoli rRNA inh RFP: 0.6

Results for O=C(NCC1CCCN1S(=O)(=O)c1cccs1)c1cccc(F)c1 (stereo not given) ?
Vif A3G: 0%; RanGTP-Impb inh: 3.3; AF4-AF9 inh: 0.7; T cruzi inh: 2; Beta apoptosis: 4; Bfl-1 A1 inh: -0.9; Calb FLC: 5; Ecoli rRNA inh: 6; Ecoli rRNA inh OD600: 8; Ecoli rRNA inh RFP: 0.6

How did CC(=O)N1CCOc2ccc(S(=O)(=O)NCCc3ccc(Cl)cc3)cc21 do in these assays?
RanGTP-Impb inh: 3.5; AF4-AF9 inh: -1.5; T cruzi inh: 5; Beta apoptosis: -5; Bfl-1 A1 inh: -1.0; Calb FLC: -7; Ecoli rRNA inh: -15; Ecoli rRNA inh OD600: -12; Ecoli rRNA inh RFP: 4.3

How did Cn1nc(-c2ccc(N3CCCCC3)c(NC(=O)c3ccco3)c2)c2ccccc2c1=O do in these assays?
Vif A3G: -1%; RanGTP-Impb inh: -3.5; T cruzi inh: 66*; Beta apoptosis: 17; Bfl-1 A1 inh: 0.4; Calb FLC: 9

How did COc1ccccc1P(=O)(c1ccccc1)c1ccc([N+](=O)[O-])cc1 (stereo not given) do in these assays?
Vif A3G: -8%; RanGTP-Impb inh: -3.6; AF4-AF9 inh: -1.7; T cruzi inh: 7; Beta apoptosis: -1; Bfl-1 A1 inh: 0.1; Calb FLC: -16; Ecoli rRNA inh: 12; Ecoli rRNA inh OD600: 3; Ecoli rRNA inh RFP: 1.9

What do the screens show for `CCOC(=O)CSc1nnc(Cc2ccccc2)n1-c1ccc(C)cc1`?
Vif A3G: 27%; RanGTP-Impb inh: -0.3; T cruzi inh: -4; Beta apoptosis: -2; Bfl-1 A1 inh: -1.2; Calb FLC: -1

Results for COc1ccc(NC(=O)Cn2cnc3sc(C)c(S(=O)(=O)N4CCOCC4)c3c2=O)c(OC)c1 ?
Vif A3G: 6%; RanGTP-Impb inh: inconclusive; AF4-AF9 inh: -2.9; T cruzi inh: 13; Beta apoptosis: -3; Bfl-1 A1 inh: 0.7; Calb FLC: -9; Ecoli rRNA inh: 11; Ecoli rRNA inh OD600: 11; Ecoli rRNA inh RFP: -0.4

Results for COc1ccc(CCNC(=O)C(=O)NCC2CCCN2S(=O)(=O)c2cccs2)cc1OC (stereo not given) ?
Vif A3G: 5%; RanGTP-Impb inh: -3.0; AF4-AF9 inh: -1.1; T cruzi inh: 18; Beta apoptosis: -1; Bfl-1 A1 inh: -0.2; Calb FLC: -6; Ecoli rRNA inh: 7; Ecoli rRNA inh OD600: 0; Ecoli rRNA inh RFP: 0.6

What do the screens show for `CCCCNC(=O)CC1C(=O)N(Cc2ccccc2)C(C)c2nc3ccccc3n21` (stereo not given)?
Vif A3G: -6%; RanGTP-Impb inh: -3.1; T cruzi inh: 3; Beta apoptosis: -3; Bfl-1 A1 inh: 1.9; Calb FLC: 0

Results for CC1S/C(=N/N=C/c2ccco2)N(Cc2ccccc2)C1=O (stereo not given) ?
Vif A3G: 5%; RanGTP-Impb inh: 0.0; AF4-AF9 inh: 10.0; T cruzi inh: 5; Beta apoptosis: -2; Bfl-1 A1 inh: 0.8; Calb FLC: -23; Ecoli rRNA inh: 1; Ecoli rRNA inh OD600: 2; Ecoli rRNA inh RFP: 1.0

What do the screens show for `Cc1cc(NC(=O)c2cccc(S(=O)(=O)N(C)C)c2)n(-c2ccccn2)n1`?
Vif A3G: -7%; RanGTP-Impb inh: 1.5; T cruzi inh: 29; Beta apoptosis: 9; Bfl-1 A1 inh: -0.2; Calb FLC: -10

Results for COc1cc(OC)cc(C(=O)N2CCC3(CC2)NCCc2[nH]cnc23)c1 ?
RanGTP-Impb inh: 1.5; AF4-AF9 inh: 2.9; T cruzi inh: -1; Bfl-1 A1 inh: 0.6; Calb FLC: -1; Ecoli rRNA inh: 6; Ecoli rRNA inh OD600: 9; Ecoli rRNA inh RFP: -0.9

What do the screens show for `COc1cc(/C=C2\COC/C(=C\c3ccc(O)c(OC)c3)C2=O)ccc1O`?
Vif A3G: 8%; RanGTP-Impb inh: -6.0; AF4-AF9 inh: 7.2; T cruzi inh: -26; Beta apoptosis: -12; Bfl-1 A1 inh: 0.4; Calb FLC: 0

Results for Cn1c(=O)c2c(nc(NCc3ccccc3)n2CC(N)=O)n(C)c1=O ?
Vif A3G: 26%; RanGTP-Impb inh: -2.6; AF4-AF9 inh: -0.6; T cruzi inh: 8; Beta apoptosis: -8; Bfl-1 A1 inh: 0.1; Calb FLC: -8; Ecoli rRNA inh: 16; Ecoli rRNA inh OD600: 12; Ecoli rRNA inh RFP: 0.6

What do the screens show for `O=C(C1CCCN(S(=O)(=O)c2ccccc2)C1)N1CCN(c2ccc(F)cc2)CC1` (stereo not given)?
RanGTP-Impb inh: 3.3; AF4-AF9 inh: 3.2; T cruzi inh: 12; Beta apoptosis: 3; Bfl-1 A1 inh: 0.7; Calb FLC: -5; Ecoli rRNA inh: -6; Ecoli rRNA inh OD600: -20; Ecoli rRNA inh RFP: -2.7

How did COC(=O)c1cc(OC)c(OC)cc1NC(=O)CN1CCOCC1 do in these assays?
Vif A3G: -2%; RanGTP-Impb inh: 6.6; T cruzi inh: -12; Beta apoptosis: -9; Bfl-1 A1 inh: 0.7; Calb FLC: -3

What do the screens show for `CCN(CC)S(=O)(=O)c1ccc2c(c1)nc(SCC(=O)N1CCCCCC1)n2-c1ccc(OC)cc1`?
Vif A3G: inconclusive; RanGTP-Impb inh: 4.0; T cruzi inh: 46; Beta apoptosis: 9; Bfl-1 A1 inh: 0.4; Calb FLC: 15

How did CCCCC1(C)NC(=O)N(CC(=O)N2CCc3ccccc32)C1=O (stereo not given) do in these assays?
AF4-AF9 inh: -1.2; Beta apoptosis: -3; Bfl-1 A1 inh: -0.1; Ecoli rRNA inh: -2; Ecoli rRNA inh OD600: -4; Ecoli rRNA inh RFP: -3.8

How did CC1CCN(C(=O)c2[nH]cnc2C(=O)N[C@@H](C)C(=O)OCc2ccccc2)CC1 do in these assays?
Vif A3G: 14%; RanGTP-Impb inh: -2.5; AF4-AF9 inh: -2.4; T cruzi inh: -9; Beta apoptosis: -4; Bfl-1 A1 inh: 1.0; Calb FLC: -10; Ecoli rRNA inh: 1; Ecoli rRNA inh OD600: -3; Ecoli rRNA inh RFP: 0.4

How did CC(C)[C@H](NC(=O)c1cccc(S(=O)(=O)N2CCCC2)c1)c1nc2ccccc2[nH]1 do in these assays?
Vif A3G: 0%; RanGTP-Impb inh: 3.9; T cruzi inh: 0; Beta apoptosis: 1; Bfl-1 A1 inh: -0.3; Calb FLC: 4

What do the screens show for `NC(=O)/C=C\c1cn(-c2ccccc2)nc1-c1ccc2c(c1)OCCO2`?
Vif A3G: -3%; RanGTP-Impb inh: 5.0; T cruzi inh: -7; Beta apoptosis: 0; Bfl-1 A1 inh: 0.7; Calb FLC: -2

What do the screens show for `CSCCC(NS(=O)(=O)c1ccc2c(c1)oc(=O)n2C)C(=O)NC1CCC(C)CC1` (stereo not given)?
Vif A3G: 4%; RanGTP-Impb inh: -2.5; AF4-AF9 inh: 2.7; T cruzi inh: 3; Beta apoptosis: -14; Bfl-1 A1 inh: 1.1; Calb FLC: -2; Ecoli rRNA inh: 14; Ecoli rRNA inh OD600: 15; Ecoli rRNA inh RFP: 0.0

Some of the compounds tested (hit frequency here may not be typical).
